# Screens (PubChem)
# Vaccinia Venus: vaccinia inhibition (Venus reporter). 330,000 compounds, 0.46% hits. Potency, µM (series often up to 36.5 µM), inactives show at the highest dose activity change, negative = inhibition, most hits filed as inhibitors. Vaccinia virus Venus reporter expression, fluorescence. AID 720580; active means well fitted inhibition curve with a large enough effect; inconclusive means small, poorly fitted or top-dose-only effect; inactive means no such curve, though single readings can be large or run the other way; tested in A549 cells; further: nearly all actives have a fitted effect of over 30% in size; inactives centre near -10
# VACV mCherry inh: vaccinia inhibition (mCherry reporter). Vaccinia virus mCherry reporter infection, fluorescence; about a quarter of the inactives have no number. Potency, µM (titrated, usually from 36.5 µM), for the others: at the top dose activity change, negative = inhibition, hits mostly inhibitors. 310,000 compounds, 0.63% hits; active = well fitted inhibition curve with a large enough effect; inconclusive = small, poorly fitted or top-dose-only effect; inactive = no such curve, though single readings can be large or run the other way; tested in A549 cells; further: nearly all actives have a fitted effect of over 35% in size; inactives centre near -10
# * = called active by the depositor; i = inactive; u = inconclusive; x = no result given; & = joins results of further samples; [ ] = dose if it differs, or a comment. On the % scale 0 is the no-effect control and ±100 the full control effect; potency means the concentration at half of the fitted maximal effect.
cpd	compound	Vaccinia Venus	VACV mCherry inh
1	C[C@H](CO)N1C[C@H](C)[C@H](CN(C)C(=O)Nc2ccc(N3CCN(C)CC3)cc2)OCc2cnnn2CCCC1=O	-8.7%	i
2	CCOC(=O)/C(N=Nc1c(C)n(C)n(-c2ccccc2)c1=O)=C(\C)O	-10.8%	-16.3%
3	CC(C)N1CCC(C)(C(=O)Nc2ccc(Cl)c(Cl)c2)C1 (stereo not drawn)	-7.1%	4.4%
4	Cc1nc2ccccc2c(=O)n1-c1cccc(NS(=O)(=O)c2ccccc2)c1	-12.3%	-14.4%
5	CN(c1ccccc1)S(=O)(=O)c1ccc(NC(=O)c2cccs2)cc1	-17.5%	-18.9%
6	O=C(C(=O)N1CCN(C/C=C/c2ccccc2)CC1)c1ccccc1	-12.2%	u
7	CC(C)c1nc2ccc(NC(=O)C3CCCCC3)cc2[nH]1	0.7%	x
8	Cc1ccccc1OCC(=O)N/N=C/c1ccc2c(c1)OCCO2	-26.7%	-23.8%
9	CCN1CCN(c2ccc(N)cc2)CC1	15.5%	-9.1%
10	CCOC(=O)c1ccc(C(=O)OCC)c(NC(=S)Nc2ccc([N+](=O)[O-])cc2OC)c1	-5.7%	-14.1%
11	O=C(OCc1nc2ccccc2s1)c1ccc(Br)o1	-11.9%	-8.8%
12	O=C(N[C@H]1C/C=C\C[C@@H](CC(=O)N(CCO)Cc2ccccc2)C(=O)N2CCC[C@@H]2COC1=O)OCC1c2ccccc2-c2ccccc21	-13.8%	i
13	CCC/C=C/c1ccc(CN2C(C(C)C)C(=O)N(Cc3cn(CCC4OCCO4)nn3)CCS2(=O)=O)cc1 (stereo not drawn)	u	i
14	O=C(COc1ccc(-c2ccccc2)cc1)NN=C1CCCC1	-21.3%	-28.1%
15	OCC(Cc1ccccc1)NCc1ccccc1C(F)(F)F (stereo not drawn)	-7.9%	i
16	CC(C)N(CCNC(=O)C1CCCN(c2ncnc3c2nc2n3CCCCC2)C1)Cc1ccccc1 (stereo not drawn)	-25.2%	-20.6%
17	CCCCCCCCN1C(=O)[C@H](CC(=O)NCc2cccc(C(F)(F)F)c2)C[C@@]2(C(=O)OC)CC(C)(C)CC=C12	-28.4%	-22.0%
18	CCCCCCCCN1[C@@H](CC(C)=O)c2cc(C(F)(F)F)ccc2S1(=O)=O	-11.7%&-13.3%	-18.4%
19	COc1cc([N+](=O)[O-])c(OC)cc1SCc1n[nH]c(=S)n1-c1ccc(F)cc1	-9.4%	i
20	Cc1cc(CNC(=O)CCc2nnc(CCCCc3ccccc3)o2)nn1C	-5.0%	i
21	C[C@@H](NC(=O)c1[nH]cnc1C(=O)Nc1nccs1)c1ccccc1	-13.6%	i
22	O=S(=O)(NCCc1ccccn1)c1ccc(F)c(F)c1	16.0%	-1.6%
23	CCOC(=O)C1=C(C)N(C)C(C)=C(C(=O)OCC)C1c1ccccc1	-11.3%	-19.5%
24	O=C(CSc1nnc2scc(-c3ccccc3)n12)NCC1CCCO1 (stereo not drawn)	-1.2%	-0.6%
25	COc1ccc(CCn2c(O)c(C=Nc3ccc(NC(C)=O)cc3)c(=O)[nH]c2=O)cc1OC	-6.2%	-10.4%
26	Cc1nn(C(=O)c2cccnc2)c(C)c1Sc1ccc(Br)cc1	-5.5%	i
27	Cc1c(C)[n+](=O)c(-c2ccc(Br)cc2)c(C)n1[O-]	6.9%	-1.3%
28	COc1ccc(-n2nnnc2C(c2cccc3ccccc23)N2CCN(C/C=C/c3ccccc3)CC2)cc1 (stereo not drawn)	-2.1%	i
29	Cc1cc2nc(-c3cccc(Br)c3)c(CC(C)(C)C)n2c(C)c1Br	1.4%	9.6%
30	COc1cc2nncc(SC)c2cc1OC	-11.7%	-13.2%

# One compound at a time, from the list above. Values in the order: Vaccinia Venus	VACV mCherry inh
# Profile of COc1cc2nncc(SC)c2cc1OC : -11.7%	-13.2%
# Profile of O=C(COc1ccc(-c2ccccc2)cc1)NN=C1CCCC1 : -21.3%	-28.1%
# Profile of CCC/C=C/c1ccc(CN2C(C(C)C)C(=O)N(Cc3cn(CCC4OCCO4)nn3)CCS2(=O)=O)cc1 (stereo not drawn) : u	i

# Later entries
cpd	compound	Vaccinia Venus	VACV mCherry inh
31	O=C(COc1ccccc1)N[C@@H]1c2ccccc2CC[C@@H]1O	-0.9%	i
32	Cc1ccc2[nH]c(C(=O)N3CCN(C(c4ccccc4)c4ccccc4)CC3)cc2c1	-13.8%	-8.8%
33	CCOC(=O)c1[nH]c(=O)[nH]c1CN(Cc1ccco1)Cc1[nH]c(=O)[nH]c1C(=O)OCC	-4.2%	-25.6%
34	N#CCCn1c(SCC(=O)NCc2ccco2)nc2ccccc21	-0.6%	x
35	CC1CCCCC1NC(=O)/C=C/c1nc2ccccc2s1 (stereo not drawn)	-9.3%	i
36	CC(=O)Nc1ccc(/C=C/c2ccnc3ccccc23)cc1	-18.8%	-26.7%
37	COc1ccc(C(=O)N2CCOC2CNC(=O)C(=O)NCc2ccc(Cl)cc2)cc1 (stereo not drawn)	-12.9%	-10.2%
38	CCOC(=O)c1cnc2c(C)cccc2c1NCCCN1CCOCC1	-7.6%	16.8%
39	COCCNC(=O)c1c(NC(=O)c2ccc(Br)o2)n(Cc2ccccc2)c2nc3ccccc3nc12	37.3%[activator]	-11.5%
40	CN(C(=O)COC(=O)c1ccc2ccccc2n1)C1CCS(=O)(=O)C1 (stereo not drawn)	-0.8%	i
41	COCCCN1C(=O)C(=O)/C(=C(/O)c2ccccc2)C1c1ccc(N(C)C)cc1 (stereo not drawn)	-2.3%	-1.9%
42	Cn1c(=O)c2c(nc(Oc3ccc(-c4ccccc4)cc3)n2C)n(C)c1=O	-9.6%	i
43	COCCNC(=O)C(=O)Nc1c2c(nn1-c1ccccc1)CS(=O)(=O)C2	-14.3%	-12.7%
44	COC(=O)Cc1c(C)c2ccc(OCC(=O)NC3CCS(=O)(=O)C3)cc2oc1=O (stereo not drawn)	-3.8%	-10.7%
45	COc1ccc2cc(C(=O)C3CCCN(C(=O)Cc4c(C)noc4C)C3)ccc2c1 (stereo not drawn)	-14.0%	i
46	CCc1ccc(N2CN(Cc3cccnc3)CNC2=S)cc1	-8.8%	i
47	Cc1nnsc1C(=O)NNS(=O)(=O)c1ccccc1	-10.4%	-22.6%
48	O=C(CSCc1ccc(Br)cc1)N1CCOCC1	-25.7%	-29.1%
49	COc1ccc(CC(=O)Nc2sc3c(c2C(=O)Nc2ccccc2)CCCCC3)cc1	-16.9%[7.34 µM]	-24.3%[7.34 µM]
50	CCCNC(=O)c1cc(C2CCCCN2S(=O)(=O)c2ccc(OC)cc2)on1 (stereo not drawn)	-9.7%	29.7%
51	CC1=C(C/C(C)=C/c2ccccc2)/C(=C/CO)[C@H](O)[C@](C)(O)C12CC2	-13.3%	-8.5%
52	CCc1c(C(=O)N/N=C/c2ccco2)nnn1-c1nonc1N	2.1%	36.4%[activator]
53	CCc1[nH]nc(C(=O)NC2CCCc3c2cnn3-c2cc(C)cc(C)c2)c1C (stereo not drawn)	6.8%	u
54	CCN(CC)S(=O)(=O)c1cc(NC(=O)C(C)Nc2ccccc2N2CCOCC2)ccc1C (stereo not drawn)	-24.4%	-23.1%
55	CCCCc1ccc(NC(=O)CSc2nc(=O)n(CCN(CC)CC)c3c2CCC3)cc1	-27.5%	u
56	CCC(C)(C)NC(=O)C(c1cccc(OC)c1OC)N(Cc1ccc(OC)cc1)C(=O)CCC(=O)Nc1cc(C)on1 (stereo not drawn)	-3.8%	-15.7%
57	CCCOC(=O)c1c(NC(=O)c2cc3ccccc3c(=O)o2)sc2c1CCC(C)C2 (stereo not drawn)	-6.9%	-2.7%
58	COc1cccc(N/C(C)=C/C(=O)c2ccc(Br)cc2)c1	-10.2%	-9.3%
59	COc1cc(NC(=O)c2csc(N)n2)cc(C(=O)Nc2cccc(C(F)(F)F)c2)c1	u	u
60	COc1ccccc1CN1CC(C(=O)NCc2cnn(C)c2)CCC1=O (stereo not drawn)	-11.7%	-13.0%

# In the list so far, 2 contain a nitro group on carbon:
cpd	compound	Vaccinia Venus	VACV mCherry inh
10	CCOC(=O)c1ccc(C(=O)OCC)c(NC(=S)Nc2ccc([N+](=O)[O-])cc2OC)c1	-5.7%	-14.1%
19	COc1cc([N+](=O)[O-])c(OC)cc1SCc1n[nH]c(=S)n1-c1ccc(F)cc1	-9.4%	i

# Next section.
cpd	compound	Vaccinia Venus	VACV mCherry inh
61	Cc1ccc2nc(SCc3nc4cc(Cl)ccc4c(=O)[nH]3)[nH]c2c1	-1.3%	5.8%
62	COc1ccc(-c2nn3c(-c4ccc(F)cc4)nnc3s2)cc1	-19.7%	-21.2%
63	CCOC(=O)c1cc2c(=O)n3cccc(C)c3nc2n(CC2CCCO2)c1=NC(C)=O (stereo not drawn)	23.6%&5.5%	-14.1%
64	COc1cc2c(cc1OC)C1C(=O)c3c(cc4c(c3O)C=CC(C)(C)O4)OC1CO2 (stereo not drawn)	12.0%	4.4%
65	O=C(CCNC(=O)c1ccc(Cl)cc1)NNC(=O)c1ccc(F)cc1	-20.2%	-16.9%
66	CCn1c(=O)cc(OCC(=O)Nc2ccc(C)c(F)c2)c2ccccc21	-17.2%	-9.2%
67	NC(N)=N/N=C/c1cc([N+](=O)[O-])ccc1O	-12.3%	-23.1%
68	CCCN1CNc2c(c(=O)[nH]c(=S)n2CCc2ccc(OC)cc2OC)C1	-14.2%	i
69	C[C@H]1O[C@@H](O[C@H]2CC[C@@]3(C)C(CC[C@]4(C)C3C=C[C@]35OC[C@@]6(CCC(C)(C)C[C@H]63)[C@@H](O)C[C@]54C)[C@]2(C)CO)[C@H](O)[C@@H](O[C@@H]2O[C@H](CO)[C@@H](O)[C@H](O)[C@H]2O)[C@H]1O (stereo partly drawn)	-13.7%	-26.0%
70	O=C(NCc1ccco1)c1csc2c1CCCC2	-9.4%	-13.3%
71	C/C(=N/NC(=O)c1cc(-c2cccc([N+](=O)[O-])c2)n[nH]1)c1ccc(Cl)cc1	4.0%	i
72	O=S(=O)(NCCc1csc(-c2ccc(C(F)(F)F)cc2)n1)c1ccc2c(c1)OCCO2	2.1%	u
73	CCOCCCN(C(=O)c1ccco1)C(C(=O)NC1CCCC1)c1cccc(OC)c1OC (stereo not drawn)	-12.0%	-4.0%
74	COc1ccc(C(c2nnnn2C2CCCCC2)N2CCC3(CC2)C(=O)NCN3c2ccccc2)cc1 (stereo not drawn)	-8.4%	i
75	Cc1cc(OCC(=O)OCC(=O)NC2CCS(=O)(=O)C2)ccc1Cl (stereo not drawn)	-5.3%	-0.6%
76	COc1ccc(C)cc1S(=O)(=O)N1CCCC(C(=O)N2CCN(c3ccccc3F)CC2)C1 (stereo not drawn)	-25.5%	-19.6%
77	O=[N+]([O-])c1ccc(N2CCN(S(=O)(=O)c3ccccc3)CC2)c2cccnc12	-13.9%	-18.1%
78	CCOc1ccc(CCNC(=O)COC(=O)Cn2cnc3ccccc3c2=O)cc1OCC	-4.9%	i
79	COc1cccc(N2CCN(S(=O)(=O)c3ccc4c(c3)N(C(C)=O)CCO4)CC2)c1	-7.8%	-19.3%
80	CSc1ccc(CNC(=O)c2ccc(NC(=O)c3nsc4ccccc34)cc2)cc1	-4.5%[7.34 µM]	-7.5%[7.34 µM]
81	COc1ccc(S(=O)(=O)Nc2cc3c(cc2NCc2ccccc2)n(C)c(=O)n3C)cc1	-10.3%	-20.5%
82	CCN(CC)c1ccc(-c2nnc(SCC(=O)NCc3ccco3)n2CC)cc1	-27.6%	-22.6%
83	CCn1c(CCNC(=O)c2ccccc2Cl)n[nH]c1=S	-9.0%	x
84	Cn1cc(S(=O)(=O)N2CCCCC2)cc1C(=O)NCc1ccc(Cl)cc1	-8.6%[7.34 µM]	-16.5%[7.34 µM]
85	COc1ccc(NC(=O)CSCC(=O)Nc2nnc(C)s2)cc1	-3.9%	-7.9%
86	CCN1Cc2c(/C=C/c3ccccc3)nc3ccc(OC)cc3c2N(c2cccc(Cl)c2)C1	u	u
87	Cc1cc(C)c(/C([O-])=C(/C(=S)Nc2ccc(SC(F)F)cc2)[n+]2ccccc2)cc1C	-12.9%	i
88	O=C(COc1ccc2c(-c3ccccc3)cc(=O)oc2c1)NCc1cccs1	2.3%	-3.3%
89	CC(C)Cn1c(-c2ccc(Br)o2)n[nH]c1=S	3.5%	-10.8%
90	C[C@H](CO)N1C[C@H](C)[C@@H](CN(C)Cc2ccncc2)Oc2c(NC(=O)C3CC3)cccc2C1=O	0.2%	-1.3%
91	CCC(=O)c1cc2c(C)cc(=O)oc2c(C)c1OC(C)=O	0.0%	8.7%
92	COc1ccc(OC)c(C(c2nnnn2Cc2ccccc2)N2CCC(C(N)=O)CC2)c1 (stereo not drawn)	16.8%	x
93	Cc1ccc(C(=O)NC2CC(C)(C)NC(C)(C)C2)cc1Cl	-18.9%	2.7%
94	CNC(=O)COc1ccc(C=O)cc1OC	-4.7%	-10.7%
95	CCOC(=O)/C(C#N)=C\C1=C(N2CCOCC2)CC(C)(C)OC1	6.2%	-6.9%
96	O=C(C1CCCN(Cc2ccccc2[N+](=O)[O-])C1)N1CCCC1 (stereo not drawn)	-4.5%	i
97	Cc1c(C(=O)N2CCCC2)c(S(=O)(=O)Nc2ccccc2Cl)c(C)n1C	-0.1%	-8.1%
98	N/C(=N\OC(=O)Nc1ccccc1)c1ccno1	-2.0%	i
99	O=C(/C=C/c1ccc(F)cc1)NC(=S)N1C[C@H]2C[C@H](C1)c1cccc(=O)n1C2	2.4%	5.1%
100	O=C(c1ccco1)N1CCN(c2ncnc3c(-c4ccc(Cl)cc4)nsc23)CC1	6.1%	-14.3%
